Vaccinia inh – blocks a specific stage of Vaccinia orthopoxvirus infection, primary screen, cell-based, single point. activity change (mCherry), % (concentration not given with the values). 89,000 compounds, 0.01% hits. AID 1053133, 2014. Vaccinia-infected cells, mCherry/Venus stage reporter fluorescence; stronger effect = lower value; some inactives read as strong as hits;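 active = mCherry past -33% and 40 or more points under the early reporter, replicates agreeing; inconclusive = past -33% without that gap or agreement; tested in A549 cells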;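 note: scaled between vehicle wells and reference inhibitor wells; 23 nL library stock went into each well; one replicate is shown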
Vaccinia inh Venus – further read-out of Vaccinia inh, marked with its call; activity change (Venus), %; measured here: Venus reporter, other viral stage;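 negative = less Venus signal; first of two replicates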
Active calls of the source: *; ? = inconclusive; . = not tested or not shown. The list is partial, so the mix of outcomes need not match the whole.

SMILES	Vaccinia inh	Vaccinia inh Venus
CC(=O)N(C)C[C@@H]1Oc2cc(C#CC3CCCCC3)ccc2S(=O)(=O)N([C@@H](C)CO)C[C@H]1C	-35	-25
CC(C)NC(=O)N(C)C[C@@H]1Oc2ccc(NC(=O)C3CC3)cc2CC(=O)N([C@@H](C)CO)C[C@@H]1C	-2	1
C[C@H](CO)N1C[C@H](C)[C@H](CN(C)CC2CCCCC2)Oc2ccc(NS(=O)(=O)c3cccs3)cc2C1=O	12	-8
C[C@H]1CN([C@@H](C)CO)C(=O)Cc2cc(NC(=O)Cn3cnnn3)ccc2O[C@H]1CN(C)Cc1ccc(C(F)(F)F)cc1	3	3
COC(=O)C[C@@H]1C[C@H]2c3cc(NS(C)(=O)=O)ccc3O[C@H]2[C@H](CO)O1	-5	0
C[C@H]1CN([C@@H](C)CO)C(=O)CCCn2nncc2CO[C@H]1CN(C)CC1CC1	6	8
CO[C@@H]1CN(C)C(=O)c2cc(NC(=O)NC3CCCC3)ccc2OC[C@@H](C)N(CC2CC2)C[C@@H]1C	-8	-7
O=C(C1CC1)N1CC[C@H]2[C@H](CO)Nc3ccc(-c4cccc(F)c4)cc3[C@H]21	-15	-20
C[C@@H]1CN([C@@H](C)CO)C(=O)Cc2cc(NS(=O)(=O)c3ccc(Cl)cc3)ccc2O[C@H]1CN(C)Cc1ccc(Cl)c(Cl)c1	?	.
C[C@H](CO)N1C[C@H](C)[C@H](CN(C)C(=O)c2cccnc2)Oc2ncc(-c3ccc(C#N)cc3)cc2C1=O	10	9
O=S(=O)(c1ccc(F)cc1)N1CCCCN2[C@@H](CO)[C@@H](c3ccc(C4=CCCCC4)cc3)[C@@H]2C1	-21	-31
CCCNC(=O)[C@@H]1[C@@H](CO)[C@@H]2Cn3c(ccc(-c4ccccc4)c3=O)[C@H]1N2Cc1ccccc1F	7	4
N[C@@H]1CC[C@@H](CCn2cc(-c3cccc(F)c3)nn2)O[C@H]1CO	-4	-5
O=C(c1ccccc1)N1C[C@H]2[C@@H](c3ccccc31)[C@H](CO)N2C(=O)Nc1ccccc1Cl	4	-2
Cc1noc(C)c1S(=O)(=O)Nc1ccc2c(c1)C(=O)N([C@H](C)CO)C[C@@H](C)[C@H](CN(C)C(=O)CCC(F)(F)F)OCCCC[C@@H](C)O2	-11	-13
O=C(Nc1ccc(F)cc1)N1CC(=O)N2[C@@H](CO)[C@H](c3ccc(-c4ccc(F)cc4)cc3)[C@@H]2C1	?	.
C[C@@H]1CN([C@H](C)CO)C(=O)Cc2cc(NC(=O)Nc3cccc4ccccc34)ccc2O[C@@H]1CN(C)C(=O)Nc1ccc2c(c1)OCO2	8	11
C[C@H](CO)N1C[C@H](C)[C@@H](CN(C)CC2CCOCC2)Oc2cc(Br)ccc2S1(=O)=O	-9	-6
C[C@@H]1CN([C@@H](C)CO)C(=O)Cc2cc(NC(=O)Nc3ccc(C(F)(F)F)cc3)ccc2O[C@H]1CN(C)C(=O)Nc1ccccc1	-14	12
COCC(=O)N1C[C@H](C)[C@@H](OC)CN(C)C(=O)c2cc(NC(=O)c3ccccc3)ccc2OC[C@@H]1C	12	10
CCCN1C[C@H](C)[C@@H](OC)CN(C)C(=O)c2cc(NC(=O)c3cccc(F)c3)ccc2OC[C@@H]1C	-35	-32
Cc1c(NC(=O)/C(C#N)=C/c2ccc3ccccc3c2)c(=O)n(-c2ccccc2)n1C	-4	-8
COc1ccc(S(=O)(=O)N(C)C[C@H]2Oc3c(NC(=O)c4cc(C)nn4C)cccc3C(=O)N([C@H](C)CO)C[C@@H]2C)cc1	8	1
C[C@@H]1CN([C@@H](C)CO)C(=O)Cc2cc(NC(=O)c3ccncc3)ccc2O[C@@H]1CN(C)S(=O)(=O)c1ccccc1	9	8
C[C@H](CO)N1C[C@H](C)[C@@H](CN(C)S(=O)(=O)c2cn(C)cn2)Oc2ccc(NC(=O)Nc3ccccc3)cc2CC1=O	14	-1

In the list so far, two have a Cl atom:
SMILES	Vaccinia inh	Vaccinia inh Venus
C[C@@H]1CN([C@@H](C)CO)C(=O)Cc2cc(NS(=O)(=O)c3ccc(Cl)cc3)ccc2O[C@H]1CN(C)Cc1ccc(Cl)c(Cl)c1	?	.
O=C(c1ccccc1)N1C[C@H]2[C@@H](c3ccccc31)[C@H](CO)N2C(=O)Nc1ccccc1Cl	4	-2

Next results follow.
SMILES	Vaccinia inh	Vaccinia inh Venus
CN1c2ccc(-c3ccccc3F)cc2[C@@H]2[C@@H](CCN2C(=O)Cc2ccccn2)[C@@H]1CO	-27	-10
C[C@H](NC(=O)[C@@H]1N[C@@H]2c3ccc(C4=CCCC4)c(=O)n3C[C@@H]2[C@H]1CO)c1ccccc1	-3	5
C[C@@H]1CN([C@H](C)CO)C(=O)c2cc(NC(=O)Cc3ccccc3)ccc2O[C@H]1CN(C)Cc1ccc(C(F)(F)F)cc1	?	.
O=C(Nc1ccc(F)cc1)N1[C@@H]2CNC[C@H]1C2c1ccc(-c2cccnc2)cc1 (some centres undefined)	-6	-4
CCNC(=O)Nc1ccc2c(c1)C(=O)N(C)[C@H]1CC[C@H](CC(=O)NCc3ccc(F)cc3)O[C@@H]1CO2	12	12
O=C(Nc1ccc2c(c1)[C@H]1C[C@@H](CC(=O)N3CCCCC3)O[C@@H](CO)[C@H]1O2)Nc1ccccc1F	16	-3
Cc1ccc(S(=O)(=O)Nc2ccc3c(c2)C(=O)N([C@@H](C)CO)C[C@H](C)[C@H](CN(C)S(=O)(=O)c2cn(C)cn2)OCCCC[C@H](C)O3)cc1	-3	8
CO[C@@H]1CN(C)C(=O)c2ccc(NS(C)(=O)=O)cc2OC[C@H](C)N(C(=O)C2CCOCC2)C[C@@H]1C	3	9
CCCNC(=O)N[C@@H]1CC[C@H](CC(=O)N2CCN(C)CC2)O[C@@H]1CO	1	9
COCC#Cc1ccc2c(c1)O[C@H](CN(C)S(=O)(=O)c1ccc(F)cc1)[C@H](C)CN([C@@H](C)CO)S2(=O)=O	-13	-2
CCCNC(=O)[C@H]1[C@H](CO)[C@H]2Cn3c(ccc(-c4ccc(F)cc4)c3=O)[C@H]2N1CC1CC1	4	6
COc1ccc2c3c(n(C)c2c1)[C@H](CO)N(C(=O)C1CCCCC1)CC31CCN(C(=O)CN(C)C)CC1	-14	-13
COc1cccc(NC(=O)Nc2ccc3c(c2)C(=O)N(C)C[C@@H](OC)[C@@H](C)CN(C)[C@H](C)CO3)c1	-11	-3
C[C@H](CO)N1C[C@H](C)[C@@H](CN(C)C(=O)CCCN(C)C)OCc2cn(nn2)CCCC1=O	12	3
COc1cccc(CNC(=O)[C@@H]2[C@@H](CO)[C@@H]3Cn4c(cccc4=O)[C@H]2N3C(=O)C2CCCC2)c1	9	5
N#C[C@H]1[C@@H](c2ccccc2-c2ccccc2)[C@@H](CO)N1C(=O)NC1CCCCC1	-13	-8
CO[C@@H]1CN(C)C(=O)c2cc(NS(=O)(=O)c3ccc(C)cc3)ccc2OC[C@@H](C)N(C(=O)NC(C)C)C[C@H]1C	12	10
C[C@H]1CN([C@@H](C)CO)C(=O)CCCn2cc(nn2)CO[C@H]1CN(C)Cc1cccc2c1OCCCO2	9	7
C[C@H](CO)N1C[C@H](C)[C@@H](CN(C)C(=O)NC2CCCC2)Oc2cc(/C=C/c3ccccc3)ccc2S1(=O)=O	?	.
CO[C@H]1CN(C)C(=O)c2ccc(NC(=O)Nc3ccccc3Cl)cc2OC[C@H](C)NC[C@H]1C	-26	-16
C[C@@H]1CCCCO[C@H](CN(C)Cc2ccccc2)[C@@H](C)CN([C@@H](C)CO)C(=O)c2cc(NS(=O)(=O)c3ccc(F)cc3)ccc2O1	?	.
C[C@@H](NC(=O)C[C@@H]1C[C@H]2c3cc(N(C)C)ccc3O[C@H]2[C@@H](CO)O1)c1ccccc1	-4	1
COc1ccc(S(=O)(=O)Nc2ccc3c(c2)[C@H]2C[C@@H](CC(=O)NCC4CC4)O[C@H](CO)[C@H]2O3)cc1	3	16
CCCN(C)C[C@@H]1Oc2ncc(C#Cc3ccc(F)cc3)cc2C(=O)N([C@H](C)CO)C[C@@H]1C	?	.
O=C(C1CC1)N1CCCCN2[C@H](CO)[C@@H](c3ccc(-c4cccc(F)c4)cc3)[C@H]2C1	-24	-10

Shown in CSV form: part of the list above.
smiles,Vaccinia inh,Vaccinia inh Venus
CCCNC(=O)[C@H]1[C@H](CO)[C@H]2Cn3c(ccc(-c4ccc(F)cc4)c3=O)[C@H]2N1CC1CC1,4,6
COc1ccc2c3c(n(C)c2c1)[C@H](CO)N(C(=O)C1CCCCC1)CC31CCN(C(=O)CN(C)C)CC1,-14,-13
COc1cccc(NC(=O)Nc2ccc3c(c2)C(=O)N(C)C[C@@H](OC)[C@@H](C)CN(C)[C@H](C)CO3)c1,-11,-3
C[C@H](CO)N1C[C@H](C)[C@@H](CN(C)C(=O)CCCN(C)C)OCc2cn(nn2)CCCC1=O,12,3
COc1cccc(CNC(=O)[C@@H]2[C@@H](CO)[C@@H]3Cn4c(cccc4=O)[C@H]2N3C(=O)C2CCCC2)c1,9,5
N#C[C@H]1[C@@H](c2ccccc2-c2ccccc2)[C@@H](CO)N1C(=O)NC1CCCCC1,-13,-8

Shown with two lines to a compound: part of the list above
Below each SMILES: Vaccinia inh | Vaccinia inh Venus
> COc1cccc(NC(=O)Nc2ccc3c(c2)C(=O)N(C)C[C@@H](OC)[C@@H](C)CN(C)[C@H](C)CO3)c1
    -11 | -3
> C[C@H]1CN([C@@H](C)CO)C(=O)CCCn2cc(nn2)CO[C@H]1CN(C)Cc1cccc2c1OCCCO2
    9 | 7

Other records:
SMILES	Vaccinia inh	Vaccinia inh Venus
CC=Cc1ccc2n(c1=O)C[C@H]1[C@H](CO)[C@@H](C(=O)NCCC)[C@@H]2N1Cc1nccs1 (mixture of isomers)	10	5
C[C@H](CO)N1C[C@H](C)[C@H](CN(C)C(=O)Nc2ccc(F)cc2)Oc2ncc(/C=C/c3ccccc3)cc2C1=O	-28	-13
C[C@H](CO)N1C[C@H](C)[C@H](CN(C)C(=O)Nc2cccc3ccccc23)Oc2ncc(-c3ccccc3)cc2C1=O	?	.
CCC(=O)N(C)C[C@@H]1Oc2cc(-c3ccc(C#N)cc3)ccc2S(=O)(=O)N([C@@H](C)CO)C[C@@H]1C	-1	0
COc1cccc(NC(=O)N(C)C[C@H]2Oc3cc(-c4ccccc4F)ccc3S(=O)(=O)N([C@@H](C)CO)C[C@H]2C)c1	?	.
CCCC(=O)Nc1ccc2c(c1)C(=O)N(C)C[C@@H](OC)[C@@H](C)CN(C(=O)C1CCCC1)[C@@H](C)CO2	-2	5
COc1ccccc1C#Cc1cnc2c(c1)C(=O)N([C@@H](C)CO)C[C@H](C)[C@@H](CN(C)C(C)=O)O2	15	0
CCC(=O)N1[C@@H]2c3ccc(C4=CCCC4)c(=O)n3C[C@@H]2[C@@H](CO)[C@@H]1C(=O)Nc1ccccc1	-2	19
CO[C@@H]1CN(C)C(=O)c2cc(NS(C)(=O)=O)ccc2OC[C@H](C)N(C)C[C@@H]1C	17	23
C[C@@H]1CCCCO[C@H](CN(C)Cc2ccc(Cl)c(Cl)c2)[C@@H](C)CN([C@H](C)CO)C(=O)c2cc(NC(=O)Nc3ccc(F)cc3)ccc2O1	2	7
C[C@@H]1CCCCO[C@@H](CN(C)C(=O)Nc2ccc(C(F)(F)F)cc2)[C@@H](C)CN([C@@H](C)CO)C(=O)c2cc(N(C)C)ccc2O1	-15	-6
N#C[C@@H]1[C@@H](c2ccccc2C2=CCCCC2)[C@@H](CO)N1C(=O)NC1CCCC1	10	3
O=C(C[C@H]1C[C@H]2c3cc(NS(=O)(=O)c4ccc(F)cc4)ccc3O[C@H]2[C@@H](CO)O1)NC1CCCCC1	2	-1
CCCC(=O)Nc1ccc2c(c1)C(=O)N(C)[C@H]1CC[C@@H](CC(=O)NCC3CCCCC3)O[C@H]1CO2	-14	-9
C[C@H]1CN([C@@H](C)CO)C(=O)Cc2cc(NC(=O)Cn3cnnn3)ccc2O[C@H]1CN(C)C	2	5
C[C@@H]1CN([C@@H](C)CO)C(=O)Cc2cc(NC(=O)Nc3cccc4ccccc34)ccc2O[C@H]1CN(C)Cc1ccc(Oc2ccccc2)cc1	-14	-11
Cc1ccc(S(=O)(=O)N[C@@H]2CC[C@H](CC(=O)NCc3ccc(Cl)c(Cl)c3)O[C@H]2CO)cc1	-11	-8
CO[C@H]1CN(C)C(=O)c2ccc(NC(=O)Nc3ccc(Cl)cc3)cc2OC[C@H](C)N(C)C[C@@H]1C	?	.
Cc1noc(C)c1NC(=O)Nc1ccc2c(c1)C(=O)N([C@@H](C)CO)C[C@H](C)[C@@H](CN(C)Cc1ccc(Cl)c(Cl)c1)OCCCC[C@H](C)O2	?	.
C[C@H](CO)N1C[C@H](C)[C@H](CN(C)Cc2ccccc2)Oc2ncc(-c3ccccc3F)cc2C1=O	-5	-3
C[C@@H]1CCCCO[C@H](CN(C)C(=O)Nc2ccc3c(c2)OCO3)[C@H](C)CN([C@@H](C)CO)C(=O)c2cc(NS(=O)(=O)c3ccccc3)ccc2O1	-19	-9
COCC(=O)N(C)C[C@@H]1Oc2cc(-c3cccc(F)c3)ccc2S(=O)(=O)N([C@@H](C)CO)C[C@H]1C	11	14
C[C@H](CO)N1C[C@H](C)[C@@H](CN(C)CC2CCCCC2)Oc2ccc(NS(=O)(=O)c3ccc(Cl)cc3)cc2CC1=O	?	.
CC(C)C#Cc1cnc2c(c1)C(=O)N([C@H](C)CO)C[C@@H](C)[C@H](CN(C)C(=O)Nc1cc(F)ccc1F)O2	-6	-7
C[C@@H]1CN([C@H](C)CO)C(=O)c2cc(NC(=O)Nc3cccc4ccccc34)ccc2O[C@@H]1CN(C)S(=O)(=O)c1ccc(F)cc1	18	-1
COc1ccc(-c2ccc([C@@H]3[C@@H](CO)N4C(=O)CN(C(=O)C5CCOCC5)C[C@@H]34)cc2)cc1	-4	-1

Bioassay records as filed in PubChem.
